Screens: PubChem BioAssay, National Center for Advancing Translational Sciences (NCATS)
Methyltransferases: Primary Screen for Target Class Profiling of Small Molecule Inhibitors of Methyltransferases | hit rate 3.9% among 25,000 | calls only at 40 µM | purified enzyme, MTase-Glo SAH luminescence; active compounds read low; active = -50% or lower on at least one of six enzymes; inconclusive = the cases between; inactive = as a rule above -30% on all six;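 also: enzymes were COMT GAMT GNMT HNMT NNMT and PNMT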
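Each enzyme was reacted with SAM and its substrate, with compounds tested once at 40 uM; SAH formed was read by MTase-Glo luminescence.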
Calls only; ! = not confirmed by another sample. % is scaled to controls: 0 for no effect and ±100 for the full control effect.

For CC(=O)OC1C(OC(=O)c2ccccc2)C2C(C)(C)CCC(OC(C)=O)C2(C)C23CCC(C)(C2)C(=O)CC13 (stereo not drawn) the results were Methyltransferases inactive.
Cc1cc2c(cc3n2CC(C)(C(=O)NC2CCCCCC2)N(c2cccc(Cl)c2)C3=O)o1 (stereo not drawn) was read as Methyltransferases inactive.
For Cc1ccc2c(C(=O)NCc3ccc(C(F)(F)F)cc3)cc(NC(=O)C(C)C)cc2n1 the results were Methyltransferases inactive.
O=C(Cn1ccc2cc(S(=O)(=O)N3CCCCC3)ccc21)N1CCOCC1 was read as Methyltransferases inactive.
CCN1c2cc(C(=O)Nc3cccc(C(F)(F)F)c3)ccc2C(=O)N2CCCCC21 (stereo not drawn) was read as Methyltransferases inactive.
CC(C)C(Oc1ccccc1)C(=O)N1CCc2c(ncnc2N(C)C)C1 (stereo not drawn) was read as Methyltransferases inactive.
Cc1ccccc1CN1CCC(CN(Cc2cccnc2)C(=O)Cc2ccccc2)CC1 was read as Methyltransferases inactive.
C=C1CC[C@]2(C(=O)O[C@@H]3O[C@H](CO)[C@@H](O)[C@H](O)[C@H]3O)CC[C@]3(C)C(=CCC4[C@@]5(C)C[C@H](O)[C@@H](O[C@@H]6O[C@H](C(=O)O)[C@@H](O)[C@H](O)[C@H]6O)[C@](C)(C=O)C5CC[C@]43C)C2C1 (stereo partly drawn) was read as Methyltransferases inactive.
For CC(=O)OC1C(O)C2C(C)C3=CC(=O)OC3(O)CC2C2(C)CCCC(C)(CO)C12 (stereo not drawn) the results were Methyltransferases inactive.
For COC(=O)c1ncn2c1C(=O)N(c1cccc(C)c1C)C(C)(C(=O)NC1CCCC1)C2 (stereo not drawn) the results were Methyltransferases inactive.
`CC(C)CCNC(=O)C1(C)Cn2nc(C(C)(C)C)cc2C(=O)N1Cc1ccccc1Cl` (stereo not drawn) gave Methyltransferases inactive.
Screening COC(=O)[C@H](NC(=O)[C@@H]1C[C@H](NC(=O)Nc2ccc(OC)cc2)CN1C(=O)C=C(C)C)C(C)C returned Methyltransferases inactive.
For CCCN1C(=O)c2c(C(=O)N(C)Cc3ccccc3)ncn2CC1(C)C(=O)NCc1ccc(C)cc1 (stereo not drawn) the results were Methyltransferases inactive.
Screening CSc1nc(N)cc(Oc2ccc(-c3nc(Nc4cccc(C(F)(F)F)c4)n[nH]3)cc2)n1 returned Methyltransferases inconclusive.
For CC(C)CCn1c(=O)c2ccccc2n2c(=O)n(CC(=O)N3CCN(c4ccccc4F)CC3)nc12 the results were Methyltransferases inactive.
Screening COc1cccc(CC(=O)N2CCCC3(C2)NC(=O)N(Cc2cccc(Cl)c2)C3=O)c1 (stereo not drawn) returned Methyltransferases inactive.
For COc1ccc2cc3n(c2c1)CC(C)(C(=O)NC1CCCC1)N(c1cccc(F)c1)C3=O (stereo not drawn) the results were Methyltransferases inactive.
For F[C@@H]1CN(Cc2nccs2)C[C@@H]1OCc1nc2ccccc2o1 the results were Methyltransferases inactive.
Screening CCOC(=O)c1cc2n(n1)CC(C)(C(=O)NC1CCC(C)CC1)N(CCc1cccs1)C2=O (stereo not drawn) returned Methyltransferases inactive.
C/C=C(\C)C(=O)OC[C@H]1O[C@@H](O[C@H]2[C@@H](O[C@H]3O[C@H](COC(=O)/C(C)=C/C)[C@@H](O)[C@H](O)[C@H]3O[C@@H]3O[C@H](COC(=O)/C(C)=C/C)[C@@H](O)[C@H](OC(=O)/C(C)=C/C)[C@H]3O)O[C@H](COC(=O)/C(C)=C/C)[C@@H](O)[C@@H]2O)[C@H](O)[C@@H](O)[C@@H]1O was read as Methyltransferases inactive.
CCCCOC(=O)COc1ccc2c(-c3ccccc3)cc(=O)oc2c1 was read as Methyltransferases inactive.
CCOC(=O)c1c(C)nn(-c2cccc([N+](=O)[O-])c2)c1C was read as Methyltransferases inactive.
`O=C(c1cc(CC2(NCc3ccccc3F)COC2)no1)N1CCCCC1` gave Methyltransferases inactive.
`CCC(C(=O)NC)n1ccc2cc(S(=O)(=O)N3CCCCC3)ccc21` (stereo not drawn) gave Methyltransferases inactive.
For Cc1ccsc1C(=O)C1CCCN(Cc2ccc(OC(C)C)c(CO)c2)C1 (stereo not drawn) the results were Methyltransferases inactive.
`Cc1cc(C(=O)Cn2cc(C#N)ccc2=O)c(C)n1Cc1ccccc1` gave Methyltransferases inactive.
Screening CCCn1c(=O)c2ccc(C(=O)NC3CCCCC3)cc2n2c(=O)n(CC(=O)c3ccc(OC)cc3)nc12 returned Methyltransferases inactive.
`O=C(NCC1CCCO1)N1CCCCCCn2c(nnc2-c2ccc(F)cc2)CC1` (stereo not drawn) gave Methyltransferases inactive.
For COc1ccc(-c2nn(-c3ccccc3C)cc2CN2CCCN(C)CC2)cc1F the results were Methyltransferases inactive.
CCC(C)NC(=O)c1ccc2c(=O)n(C)c3nnc(SCC(=O)NC(C)C)n3c2c1 (stereo not drawn) was read as Methyltransferases inactive.
For c1ccc(-n2cncn2)c(Cn2ccnc2-c2cc3n(n2)CCCNC3)c1 the results were Methyltransferases inactive.
Screening COc1ccc(-c2nc3cc(C(=O)NCC(C)C)ccc3o2)cn1 returned Methyltransferases inactive.
`CN=C(N)NCCCCC/C=C(/C)CC(C)C1OC(=O)C(C)C(O)/C=C/C(C)C(O)CC(O)C(C)C(O)CCC(C)C(O)CC2(O)OC(CC(OC(=O)CC(=O)O)CC(O)CC(O)C(C)C(O)/C(C)=C/CCC1C)CC(O)C2O` (stereo not drawn) gave Methyltransferases inactive.
`COc1cccc(C(=O)N(C)Cc2ccccc2C(F)(F)F)c1` gave Methyltransferases inactive.
O=C(Nc1ccccc1)N[C@H]1[C@H](O)[C@@H](N2CCCCC2)[C@@H]2OC[C@H]1O2 was read as Methyltransferases inactive.
Screening CN1C(=O)CC(C(=O)O)C12CCN(Cc1cccc(Cn3cccn3)c1)CC2 (stereo not drawn) returned Methyltransferases inactive.
For CC(C)NC(=O)c1ccc2c(=O)n(C(C)C)c3nn(CC(=O)NCc4ccc(Cl)cc4)c(=O)n3c2c1 the results were Methyltransferases inactive.
Screening COC[C@@H]1CN(C(=O)CC2=CCCCC2)C[C@H]1c1ccncc1 returned Methyltransferases inactive.
Cc1ccc(C(=O)Cn2nc3n(CCC(C)C)c(=O)c4ccc(C(=O)NC(C)C)cc4n3c2=O)c(C)c1 was read as Methyltransferases inactive.
For COC(=O)c1ncn2c1C(=O)N(Cc1ccc3c(c1)OCO3)C(C)(C(=O)NC1CCCC1)C2 (stereo not drawn) the results were Methyltransferases inactive.
For COc1ccc(N2CC(COc3ccccc3)Oc3nc(C)ccc3C2=O)cc1 (stereo not drawn) the results were Methyltransferases inactive.
O=C(NCC1CCN(c2cc(-c3ccc(Cl)cc3)[nH]n2)CC1)c1ccc(=O)[nH]c1 was read as Methyltransferases inactive.
For CC1=CC(=O)C(=C(C)C)CC2C(C)(O)CCC12O (stereo not drawn) the results were Methyltransferases active.
`COC[C@H]1NC(=O)CC[C@H]1C(=O)N1CCN(c2cccc(C)c2)CC1` gave Methyltransferases inactive.
For CCOC(=O)c1cc2n(n1)CC(C)(C(=O)NC1CCCCCC1)N(c1ccc(NC(C)=O)cc1)C2=O (stereo not drawn) the results were Methyltransferases inactive.

Entries listed so far containing a thiophene ring, fused or not (2):
Screening CCOC(=O)c1cc2n(n1)CC(C)(C(=O)NC1CCC(C)CC1)N(CCc1cccs1)C2=O (stereo not drawn) returned Methyltransferases inactive.
For Cc1ccsc1C(=O)C1CCCN(Cc2ccc(OC(C)C)c(CO)c2)C1 (stereo not drawn) the results were Methyltransferases inactive.

(next part)
CN(Cc1ccc(-n2cccn2)cc1)CC1CCN(CCc2ccc(F)cc2)CC1 was read as Methyltransferases inactive.
For O=C(CC[C@H]1NC(=O)c2ccccc2NC1=O)Nc1nc(-c2cccnc2)cs1 the results were Methyltransferases inactive.
O=C(CCc1nnc2n(Cc3ccc(Cl)cc3)c(=O)c3ccccc3n12)N1CCOCC1 was read as Methyltransferases inactive.
Screening O=C(NC1CCCCC1)c1ccc2c(=O)nc3c(-c4ccc(F)cc4)n[nH]n3c2c1 returned Methyltransferases inactive.
Screening C=CCN(C(=O)Cn1c(=O)oc2cc(S(=O)(=O)N3CCCC3)ccc21)c1ccccc1 returned Methyltransferases inactive.
For COc1cc(Nc2nc3c(s2)CCCC3c2ccccc2)ccc1-n1cnc(C)c1 (stereo not drawn) the results were Methyltransferases inactive.
Screening CCCN1C(=O)c2cc(C(=O)NCC)nn2CC1(C)C(=O)NC1CCCC1 (stereo not drawn) returned Methyltransferases inactive.
For CCN(CCN(C)C)C(=O)CNCc1cc(C(N)=O)ccn1 the results were Methyltransferases inactive.
`COc1ccc(-c2nc(N3CCOCC3)c3sc(CN(C)c4ncc(C(=O)NO)cn4)cc3n2)cn1` gave Methyltransferases inconclusive.
For CC(=O)Nc1c2n(c3ccccc13)CC(C)(C(=O)NC1CCCC1)N(Cc1cccs1)C2=O (stereo not drawn) the results were Methyltransferases inactive.
`Cc1noc(C)c1C(=O)N(C)C1CCc2nnc(C)n2CC1` (stereo not drawn) gave Methyltransferases inactive.
Screening Cc1ccc(C)c(N2CCN(S(=O)(=O)c3cc4[nH]c(=O)[nH]c4cc3Cl)CC2)c1 returned Methyltransferases inactive.
Cc1cnc(-c2cnc(NCCNc3ccc(C#N)cn3)nc2-c2ccc(Cl)cc2Cl)[nH]1 was read as Methyltransferases inconclusive.
O=c1c2ccccc2n2c(=O)n(Cc3c(F)cccc3Cl)nc2n1Cc1ccc(F)cc1 was read as Methyltransferases inactive.
`CCN1C(=O)c2cc(C(=O)NCc3ccc(F)cc3)nn2CC1(C)C(=O)NC1CCCC1` (stereo not drawn) gave Methyltransferases inactive.

Looked up by structure from the list above:
For O=C(CC[C@H]1NC(=O)c2ccccc2NC1=O)Nc1nc(-c2cccnc2)cs1 the results were Methyltransferases inactive.
O=C(CCc1nnc2n(Cc3ccc(Cl)cc3)c(=O)c3ccccc3n12)N1CCOCC1 was read as Methyltransferases inactive.

Later entries
`O=C(O)C[C@@H]1CCN(C(=O)c2ccc(C(F)(F)F)cc2)C[C@@H]1CCN1CCN(c2ccccn2)CC1` gave Methyltransferases inactive.
`CCc1cnc(N2CCC(c3nc(COc4ccc(-n5cnnn5)cc4)cs3)CC2)nc1` gave Methyltransferases inactive.
Screening Cc1cccc(Cn2nc3n(CC(C)C)c(=O)c4ccccc4n3c2=O)c1 returned Methyltransferases inactive.
`Fc1ccc(CNc2nc3c(-c4ccccc4)nnn3c3ccccc23)cc1` gave Methyltransferases inactive.
`Cc1cnc(-c2ccncc2)n1C1CCN(S(=O)(=O)c2ccc3c(c2)OCCO3)CC1` gave Methyltransferases inactive.
`Cc1c(Cl)cccc1NC(=O)N1CCn2cccc2C1C` (stereo not drawn) gave Methyltransferases inactive.
Screening CC[N+]1(CC)CCC(=C(c2ccccc2)c2ccccc2)C1C (stereo not drawn) returned Methyltransferases inactive.
COc1cccc(C(=O)Cn2nc3n(C(C)C)c(=O)c4ccc(C(=O)NCC(C)C)cc4n3c2=O)c1 was read as Methyltransferases inactive.
O=S(=O)(N[C@H]1CO[C@H]2[C@@H]1OC[C@H]2O)c1ccc(Cl)cc1 was read as Methyltransferases inactive.
CC(C)CNC(=O)c1ccc2c(=O)n(CC(C)C)c3nn(CC(=O)c4ccccc4)c(=O)n3c2c1 was read as Methyltransferases inactive.
Screening COC(=O)CCSC/C=C(\C)CCn1cc(CCc2ccc(-c3ccccc3)cc2)nn1 returned Methyltransferases active!.
For CC1(C(=O)NC2CCCCC2)Cn2c(cc3sccc32)C(=O)N1Cc1ccc(Cl)cc1 (stereo not drawn) the results were Methyltransferases inactive.
COc1ccc(Oc2c(Cl)cnn(-c3cc(C)cc(C)c3)c2=O)cc1 was read as Methyltransferases inactive.
COc1ccc(C(=O)Cn2nc3n(C(C)C)c(=O)c4ccc(C(=O)NCC(C)C)cc4n3c2=O)cc1 was read as Methyltransferases inactive.
CCOC(=O)c1ccc(N2C(=O)Cn3cccc3C2C(=O)NC2CCCCC2C)cc1 (stereo not drawn) was read as Methyltransferases inactive.

Reprinted from the part before: 4 entries, then new ones.
For CC1(C(=O)NC2CCCCC2)Cn2c(cc3sccc32)C(=O)N1Cc1ccc(Cl)cc1 (stereo not drawn) the results were Methyltransferases inactive.
COc1ccc(Oc2c(Cl)cnn(-c3cc(C)cc(C)c3)c2=O)cc1 was read as Methyltransferases inactive.
COc1ccc(C(=O)Cn2nc3n(C(C)C)c(=O)c4ccc(C(=O)NCC(C)C)cc4n3c2=O)cc1 was read as Methyltransferases inactive.
CCOC(=O)c1ccc(N2C(=O)Cn3cccc3C2C(=O)NC2CCCCC2C)cc1 (stereo not drawn) was read as Methyltransferases inactive.
O=C1NCCCCCCN(C(=O)c2cccnc2)[C@H]2C[C@H](c3nc(Cc4ccccc4)no3)C[C@@H]12 was read as Methyltransferases inactive.
`Cc1ccc(Cn2c(=O)c3ccccc3n3c(-c4ccc(O)cc4)nnc23)cc1` gave Methyltransferases inactive.
COCCC1(N(C)C)CCN(C(=O)c2ccnn2C)CC1 was read as Methyltransferases inactive.
NC(=O)CO[C@@H]1CO[C@H]2[C@@H]1OC[C@@H]2NC(=O)NCc1ccccc1 was read as Methyltransferases inactive.
`O=C(Cn1nc(-c2ccccc2)c2ccccc21)N1CCN(c2ccccc2F)CC1` gave Methyltransferases inactive.
`COc1cc(OC)cc(C(=O)N2CCC(c3nc(C4CCOC4)no3)CC2)c1` (stereo not drawn) gave Methyltransferases inactive.

The list is partial; rates above refer to the full screens.
